Source: PubChem BioAssay (ICCB-Longwood Screening Facility, Harvard Medical School)
MenB inh – Mtb MenB enzyme inhibition. P9WNP5. MenB enzyme assay, absorbance read-out; some hits fall short of the stated cut. inhibition, %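 (about 12 µg/mL by stock and volumes)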. hit rate 0.43% among 100,000. AID 540299;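 active means mean of two replicates above 30%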;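 further: 0% = no compound and 100% = wells with inactive enzyme; the first replicate is given; strong numbers were not always called active; inactives centre near -10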
Polio RdRp inh – poliovirus RNA polymerase inhibition; P03300; poliovirus polymerase elongation, fluorescence polarization; hits give low values; % elongation, % (compound at 16.7 µg/mL); hit rate 0.66% among 150,000; in the data active means % elongation below about 90%; further: some results filed as inactive read as strong as hits
Target sequence (P03300 1749-2209 limits assumed): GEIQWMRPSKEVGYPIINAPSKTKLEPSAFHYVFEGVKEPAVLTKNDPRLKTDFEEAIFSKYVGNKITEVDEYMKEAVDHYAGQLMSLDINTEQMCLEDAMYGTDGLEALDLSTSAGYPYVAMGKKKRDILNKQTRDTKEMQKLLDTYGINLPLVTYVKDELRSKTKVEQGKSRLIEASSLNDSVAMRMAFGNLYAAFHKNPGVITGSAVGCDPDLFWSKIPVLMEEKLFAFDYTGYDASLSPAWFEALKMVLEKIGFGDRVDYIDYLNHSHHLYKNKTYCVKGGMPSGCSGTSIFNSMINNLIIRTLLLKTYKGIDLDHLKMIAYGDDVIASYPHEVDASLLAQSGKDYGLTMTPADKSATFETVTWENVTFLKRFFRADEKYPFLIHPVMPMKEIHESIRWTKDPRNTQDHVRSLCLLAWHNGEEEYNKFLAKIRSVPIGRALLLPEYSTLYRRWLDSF
Mtb MbtI inh – blocks the Mycobacterium tuberculosis siderophore enzyme MbtI; inhibition, %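 (about 17 µg/mL by stock and volumes)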; purified MbtI enzyme, fluorescence intensity read-out; hit rate 0.89% among 100,000;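 active means above 50% in both replicates, above 80% if mildly self-fluorescent; inactive means the rest, strongly fluorescent compounds included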;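 further: 0% = mean of negative and 100% = mean of positive controls; one replicate is shown; some compounds called inactive have numbers as strong as hits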
Target sequence (P9WFX0 whole entry, looked up): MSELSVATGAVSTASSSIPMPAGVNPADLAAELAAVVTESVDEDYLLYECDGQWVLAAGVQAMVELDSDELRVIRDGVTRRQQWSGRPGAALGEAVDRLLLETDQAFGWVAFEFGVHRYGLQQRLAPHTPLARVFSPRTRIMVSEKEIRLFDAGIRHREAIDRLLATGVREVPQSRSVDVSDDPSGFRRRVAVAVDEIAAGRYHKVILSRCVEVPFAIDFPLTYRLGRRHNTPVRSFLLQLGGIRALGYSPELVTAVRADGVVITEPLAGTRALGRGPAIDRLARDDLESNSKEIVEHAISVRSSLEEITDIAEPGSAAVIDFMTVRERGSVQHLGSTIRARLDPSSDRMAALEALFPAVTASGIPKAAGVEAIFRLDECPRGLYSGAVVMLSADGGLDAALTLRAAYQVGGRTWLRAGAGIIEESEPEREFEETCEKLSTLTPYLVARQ
Polio RdRp inh intensity – further read-out of Polio RdRp inh, marked with its call; % elongation; measured here: total intensity read-out; formula for this scale not given here;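 total fluorescence in place of polarization; lower means less elongation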
* marks the source's active call; other numbers are inactive results; / = no result given.

smiles	MenB inh	Polio RdRp inh	Polio RdRp inh intensity	Mtb MbtI inh
CCC(C)NC(=O)c1cn(C)c(=O)c2cc(OC)c(OC)cc12 (stereo not drawn)	-79	99	102	-12
CCC1CC(O)C(C)C(C)S1 (stereo not drawn)	-15	102	92	/
Cc1nc2ccccc2c2oc(C(=O)NCCCN3CCCC3=O)cc12	-15	101	100	83
O=c1[nH][nH]c(=O)c2c(N=Cc3c[nH]c4ccccc34)cccc12	-39	100	104	164
CN1C/C(=C\c2ccc(N(C)C)cc2)C(=O)/C(=C/c2ccc(N(C)C)cc2)C1	-25	111	126	8
CCC1=C/C(=C\c2ccc3c(c2)OCO3)C(=O)S1	-68	99	100	95
Cc1ccc(N(CCCCN2C(=O)c3ccccc3C2=O)C(=O)c2cccc(Cl)c2)cc1	-27	100	96	-5
Nc1c(C(=O)c2ccc(Br)cc2)sc2[nH]c(=O)c(C(=O)O)cc12	-5	100	102	27
Nn1c(Cc2ccccc2F)nnc1SCC(=O)NCC(F)(F)F	-15	102	107	-6
CN1CCSc2ccc(C(=O)N3CCCCCC3)cc21	7	99	100	25
COc1ccc(-n2cnnc2SCc2c(C#N)oc3ccc(Br)cc23)cc1	-17	101	99	-3
O=C(c1ccc(S(=O)(=O)N2CCCCC2)cc1)N(c1ccccc1)C1C=CS(=O)(=O)C1 (stereo not drawn)	-6	100	101	-6
COc1ccc(N2CCN(CCCNC(=O)C3CCN(S(=O)(=O)c4ccc(Br)s4)CC3)CC2)cc1	14	101	103	5
COc1cc(C(=O)OCCCN2CCOCC2)ccc1O	-8	102	100	9
CC(C)=C1C(=O)Nc2ccc(S(=O)(=O)Nc3ccccc3)cc21	-4	101	104	4
CCOC(=O)c1ccc(NCc2ccc(N(C)C)cc2)cc1	-22	101	103	15
COc1ccc(-c2cccc(NS(=O)(=O)c3ccccc3)c2)nn1	-10	102	102	-31
CC1(C)CC(=O)C2=C(C1)Nc1nc(=S)[nH]c(N)c1C2c1ccncc1 (stereo not drawn)	-46	102	103	-27
CCOC(=O)c1c(C)oc2c1c1c(c3ccccc32)OCN(Cc2ccco2)C1	-25	105	107	35
Cc1ccccc1NC(=O)Cn1c(C)cc(C)c(C#N)c1=O	8	104	104	13
CCOC(=O)/C(C#N)=C/c1ccc(-c2cccs2)s1	-12	128	165	9
Cc1cc(-c2csc(CC#N)n2)c(C)n1Cc1ccc2c(c1)OCO2	9	109	109	16
COc1ccc(-c2cn3nc(N4CCC(C(=O)O)CC4)sc3n2)cc1	-18	104	108	2
CCc1c(C)[nH][n+]2cnn(Cc3ccc(Cl)cc3)c2c1=O	-33	104	101	3
COc1cc(CO)ccc1OCC(=O)NC1CCCCC1	-4	104	102	-6
CC[C@H](CC[C@@H](C)[C@H]1CC[C@H]2[C@@H]3CC=C4C[C@@H](O)CC[C@]4(C)[C@H]3CC[C@]12C)C(C)C	-9	99	103	-11
CN(C(=O)c1ccc(F)cc1)c1ccc(OCC(=O)NCc2ccncc2)cc1	/	99	103	-7
C[C@]12CCC3[C@@H](CC[C@@H]4C[C@H](O)CC[C@]34C)[C@@H]1CCC2=O (stereo partly drawn)	1	100	101	-15
CCCN1C2CCCC1CC(NC(=O)NC1CCCCC1)C2 (stereo not drawn)	-40	106	102	-9
Cc1ccc(-c2nc3ccc(C)cn3c2CC(=O)N(C)C)cc1	-1	100	100	-354
Nc1cccc(C(=O)NC23CC4CC(CC(C4)C2)C3)c1	-19	106	100	-147
Cc1n(O)c2c3c(c4c(c2[n+]1[O-])n(O)c(C)[n+]4[O-])[n+]([O-])c(C)n3O	-74	103	99	-1
CC(=O)N1C(C(=O)O)CSC12CCN(C)CC2 (stereo not drawn)	-32	104	104	-9
O=C(CCc1ccccc1)Oc1ccc(F)cc1	-5	103	102	-2
Nc1nc(Nc2ccc(Cl)c(Cl)c2)nc(-c2cc3ccccc3o2)n1	-17	100	101	-44
CCSc1nccc(-c2ccc3c(c2)CCC(C)(C)O3)n1	-18	109	114	-11
C[C@@H]1NCCc2cc(O)c(O)cc21	2	101	100	76*
Cc1ccc(-c2cnc(-c3ccc(Br)cc3)o2)cc1	-22	103	96	-2
CN(C(=O)Cn1c(=O)oc2ccccc21)C1CCCCC1	12	100	101	-6
O=C1CC(c2cccc(Cl)c2)CC(O)=C1C=NC1CCCC1 (stereo not drawn)	-4	104	107	/
CCOC(=O)c1ccc(NC(=O)C(C)Sc2nc(O)c(NC(C)=O)c(=O)[nH]2)cc1 (stereo not drawn)	-17	99	100	2
CCNC(=S)N1N=C2c3ccccc3CCC2C1c1ccc(F)cc1 (stereo not drawn)	15	117	119	-14
COc1ccc(S(=O)(=O)C(F)(F)F)cc1NC(C)=O	/	103	99	4
O=S(=O)(Nc1ccccc1)c1cccc2nsnc12	-1	101	103	10
O=C(NC(c1ccccc1)c1ccccc1)N1CCCCC1	-8	104	102	-24
CCn1c(=O)c(C(=O)NC)c(O)c2ccccc21	0	112	116	/
N#C/C(=C\Nc1ccc(F)c(Cl)c1)C(=O)C1CC1	-2	100	97	-19
CCOC(=O)c1cccc(NC(=O)C(C)(C)CC)c1	1	105	108	/
CC[N+](CC)=c1scc(-c2ccccc2)s1	/	101	107	1
COc1ccc(NS(=O)(=O)c2ccc3oc(SC)nc3c2)cc1	-48	82*	84*	92*
Cc1cccc(NC(=O)CC2Nc3ccccc3NC2=O)c1 (stereo not drawn)	19	101	102	10
Cc1nc(N2CCOCC2)[nH]c(=O)c1Cc1c(F)cccc1Cl	-17	106	107	11
CC1(C)O[C@@H]2CC3C4CCC5=CC(=O)CCC5(C)C4(F)C(O)CC3(C)[C@]2(C(=O)CCl)O1 (stereo partly drawn)	1	100	101	-12
NC(=O)c1c2c(nc3ccccc13)CCCC2	/	101	107	-5
CCOC(=O)c1cc(-c2ccc(C)cc2)n(CC(=O)NC2CCCC2)c1C	4	104	109	-11
O=C(/C=N/O)Nc1ccccc1I	-8	104	78	/
CCC(C)NC(=O)c1nn(C)c(=O)c2ccccc12 (stereo not drawn)	1	100	95	0
Cc1nc2cc(C(=O)OCC(N)=O)ccc2n1-c1ccccc1	-9	102	108	-4
FCc1nc2ccccc2s1	/	100	106	-6
O=C1N=C(N2CCCC2)S/C1=C/c1ccc(O)cc1	-2	103	103	-6

Other records follow.
smiles	MenB inh	Polio RdRp inh	Polio RdRp inh intensity	Mtb MbtI inh
CC(=O)OCC(COC(C)=O)OC(C)=O	7	101	102	-19
COc1cccc(C(=O)Nc2nn3c(-c4ccc(OC)c(OC)c4)nnc3s2)c1	-23	103	108	-9
NC(=O)COC(=O)c1ccccc1C(=O)c1ccccc1	/	100	97	-7
COc1ccccc1CC(=O)NC1CC(C)(C)NC(C)(C)C1	-38	104	103	-5
COc1ccc(NC(=O)CC(C)C)cc1OC	-16	97	106	6
CC[C@@H](CO)NCCN[C@@H](CC)CO	0	101	103	-13
CCN(Cc1ccncc1)Cn1nc(C2COc3ccccc3O2)oc1=S (stereo not drawn)	-30	100	92	-7
O=C1CCC(=O)N1CC(O)Cn1c2ccccc2c2ccccc21 (stereo not drawn)	/	104	106	-28
O=S(=O)(c1cccc(F)c1)N1CCN(c2nc3ccc(Cl)cc3s2)CC1	-3	102	102	-4
O=C(Nc1ccc(Cl)cc1)C1CC/C(=C\c2ccccc2)C1=O (stereo not drawn)	/	103	109	26
Cc1cc(C)c2nc(SCc3nnc(-c4ccccc4)o3)cc(C)c2c1	-24	103	110	21
COC(=O)c1c2ccccc2c(C)c2ccccc12	-13	102	98	3
CSc1ncccc1C(=O)Oc1ccc2c(c1)OCO2	4	/	/	23
N#C/C(=C\c1ccc(-c2ccc(S(=O)(=O)N3CCOCC3)cc2)o1)C(=O)NCc1ccccc1	-30	128	144	-22
Cc1sc2ncnc(N3CCc4ccccc43)c2c1C	3	100	106	20
S=C1N(c2ccccc2)C(c2ccccc2)N2CCCN12 (stereo not drawn)	-14	100	102	-13
CNC(=O)Cc1nnc(-c2ccc(C)cc2)o1	-13	102	101	-6
COc1ccc(C2C=C(C(=O)O)Nc3ncnn32)cc1OC (stereo not drawn)	5	102	103	/
CCOC(=O)c1sc2ncn(C(C)C(=O)OCc3ccccc3)c(=O)c2c1C (stereo not drawn)	-11	103	101	/
N#Cc1ccc(CN2CCNCC2)cc1	14	96	101	3
COc1cc(C)cc(OC)c1OCC(=O)Nc1cccc(C#N)c1	-8	/	/	-11
COc1ccc(CCNC(=O)CSc2nc3c(sc4ccccc43)c(=O)n2CCO)cc1OC	-1	101	104	164
NC1=Nc2cccc3cccc1c23	-56	77	137	16
O=C(C(O)c1ccccc1)N1N=C2CCCCC2C1(O)C(F)(F)F (stereo not drawn)	-11	102	103	-9
O=C(NCc1ccccc1)c1ccccc1NCC(=O)N1CCCCC1	-13	106	111	102
CC(=O)Nc1ccccc1O	-9	99	96	-27
Cc1c(C(=O)N2CCc3ccccc32)sc2nc3n(c(=O)c12)CCCC3	-17	102	108	-12
CCc1ccc(NC(=O)c2cc3c(=O)n(CC)c4ccccc4c3s2)cc1	7	101	100	2
Cc1ccc(C(=O)c2ccc(N3CCOCC3)c(F)c2)cc1	-23	102	105	-15
CCCCC(CC)C(=O)Nc1ccccc1C#N (stereo not drawn)	-14	100	102	-9
O=c1sc2ccccc2n1CCCOc1ccccc1Cl	-23	102	105	-9
O=C(CO/N=C/c1cccs1)N1CCCc2ccccc21	-6	109	112	5
CCOC(=O)c1oc2ccccc2c1COC(=O)c1ccccc1OCC	-45	108	114	28
O=C(O)CCC(=O)Nc1ccc(N2CCCCC2)c(C(=O)O)c1	-18	101	103	5
COc1ccc(S(=O)(=O)N(C)CC(=O)N2CCCC2)cc1	-47	103	103	-5
CCCCC(=O)C1CCOC(C)(C)C1 (stereo not drawn)	10	104	102	6
CCn1c(Cn2nnc3ccccc32)nnc1SCC(=O)c1ccc(Br)cc1	-23	100	98	4
CN=c1scc(-c2c[nH]c3ccccc23)n1C	5	103	104	87
Cc1nc2ccc(NC(=O)C(C)(C)C)cc2s1	14	102	103	5
COC(=O)C1=C(CNC2CCCCC2)NC(=O)NC1c1cccc(OC)c1 (stereo not drawn)	-34	105	103	-1
COc1cc2c(cc1OC)C(COc1ccc3c(C)cc(=O)oc3c1)N(C(=O)C1CC1)CC2 (stereo not drawn)	10	100	99	43
COc1ccc(-n2c(C)c3c(C)nnc(C)c3c2C)cc1	/	103	105	-12
CC1CCCCN1C(=O)COC(=O)c1ccc(-n2cnnn2)cc1 (stereo not drawn)	-31	104	100	-4
FC(F)(F)c1cc(Cl)c2nc(CSc3ncccn3)cn2c1	/	102	99	-1
S=C1NCN(CCc2ccccc2)CN1CC1CCCO1 (stereo not drawn)	-23	103	99	-7
COc1ccc(NC(=O)c2ccc(NC(=O)CSC3=NCCN3)cc2)cc1	-50	98	87	85
CCOc1ccc(CN(C)C(=O)c2cn3ccccc3n2)cc1	-14	102	108	-7
O=C1NN(c2ccccc2)C(=O)/C1=C/c1ccc(Br)cc1	79*	98	97	/

Already shown: 6 of the compounds above.
smiles	MenB inh	Polio RdRp inh	Polio RdRp inh intensity	Mtb MbtI inh
CC1CCCCN1C(=O)COC(=O)c1ccc(-n2cnnn2)cc1 (stereo not drawn)	-31	104	100	-4
FC(F)(F)c1cc(Cl)c2nc(CSc3ncccn3)cn2c1	/	102	99	-1
S=C1NCN(CCc2ccccc2)CN1CC1CCCO1 (stereo not drawn)	-23	103	99	-7
COc1ccc(NC(=O)c2ccc(NC(=O)CSC3=NCCN3)cc2)cc1	-50	98	87	85
CCOc1ccc(CN(C)C(=O)c2cn3ccccc3n2)cc1	-14	102	108	-7
O=C1NN(c2ccccc2)C(=O)/C1=C/c1ccc(Br)cc1	79*	98	97	/

Other compounds follow.
smiles	MenB inh	Polio RdRp inh	Polio RdRp inh intensity	Mtb MbtI inh
COc1cccc(/C=C2\Oc3ccccc3NC2=O)c1	-23	99	103	-487
CC(C)C(=O)NCCc1nc2ccccc2n1C	-19	106	103	-15
O=C(CCc1c[nH]c2ccccc12)Oc1ccc(F)cc1	/	103	101	-5
c1cncc(CNC2CCCc3ccccc32)c1 (stereo not drawn)	-3	99	100	-4
Cc1c(NC(=O)C(C)(C)C)c(=O)n(-c2ccccc2)n1C	-11	108	114	-7
CCc1ccc(NS(=O)(=O)c2ccc3c(c2)CC(=O)N3)cc1	-14	101	104	0
N#CC(=C1CCCC1)c1nc2ccccc2[nH]1	/	97	102	-4
COc1ccc(N2C(=O)C3N=NN(CC(=O)NCc4ccccc4)C3C2=O)cc1OC (stereo not drawn)	8	98	104	-2
CN(C)CCCn1c(-c2ccccc2)csc1=Nc1ccccc1	5	99	94	13
CCOC(=O)c1c(C)oc(C)c1CN	-54	101	101	-1
